Assay outcomes as filed in PubChem BioAssay.
GALR2 agonist: agonists of human galanin receptor 2 (GALR2). GALR2-expressing cells, agonist activation read-out. activation, %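 (tested at 5 µM)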. actives 0.48% (n = 140,000);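 active = above mean plus 3 SD of all compounds, about 5% in these data, not always enough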;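 note: 0% = vehicle buffer wells and 100% = reference agonist at full effect; tested in CHO reporter cells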
Target sequence (O43603 whole entry, looked up): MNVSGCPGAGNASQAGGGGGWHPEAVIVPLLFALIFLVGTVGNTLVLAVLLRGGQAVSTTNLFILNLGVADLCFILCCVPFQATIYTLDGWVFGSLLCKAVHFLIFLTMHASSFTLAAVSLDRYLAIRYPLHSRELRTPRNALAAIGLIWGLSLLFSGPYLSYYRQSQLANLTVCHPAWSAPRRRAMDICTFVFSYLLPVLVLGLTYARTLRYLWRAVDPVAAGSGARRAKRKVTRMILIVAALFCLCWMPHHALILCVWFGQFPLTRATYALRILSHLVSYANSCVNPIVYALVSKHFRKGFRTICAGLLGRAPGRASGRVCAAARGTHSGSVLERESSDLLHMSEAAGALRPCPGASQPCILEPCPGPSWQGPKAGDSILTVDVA
Insulin prom inh: TRM-6 insulin promoter activity inhibition | TRM-6 cells (human fetal islet line), insulin promoter-eGFP reporter, imaging; reporter expression induced with tamoxifen | actives 0.9% (n = 130,000) | AID 1273 | inhibition, % at 2 µM;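 active = inhibition above the mean plus 3 SD, with well images judged a real hit on visual review, cut at about 60% in these data, passing the limit was not always enough; inconclusive = inhibition over the cutoff but images rejected on review; inactive = inhibition not above the cutoff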
PKD1 inh: PKD1 (human) kinase inhibition; Q15139; PKD1 kinase fluorescence polarization assay; inhibition, %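 (about 10 µM by stock and volumes)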; actives 0.056% (n = 200,000); AID 797;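 active = inhibition of 50% or more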;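 note: controls were vehicle for no effect and a reference inhibitor for full effect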
RGS16-Gao: RGS16-Galphao interaction regulator (human). O15492+P09471. binding response (% of control), % at 10 µM. bead-based flow cytometry RGS16-Galphao binding, fluorescence; actives lie on both sides. actives 0.38% (n = 220,000);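 active = below 25% or above 175%, edge rows of some plates excepted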;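 note: Galphao activated by GDP with aluminum fluoride before binding; 100% = wells without compound and 0% = beads without RGS; some results beyond the cut were filed as inactive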
Target sequence (O15492 whole entry, looked up): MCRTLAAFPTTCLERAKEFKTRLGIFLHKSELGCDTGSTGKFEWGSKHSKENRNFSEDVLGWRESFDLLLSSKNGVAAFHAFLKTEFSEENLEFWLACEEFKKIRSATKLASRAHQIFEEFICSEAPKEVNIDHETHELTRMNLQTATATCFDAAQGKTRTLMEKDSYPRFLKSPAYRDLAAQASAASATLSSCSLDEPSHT
Target sequence (P09471 whole entry, looked up): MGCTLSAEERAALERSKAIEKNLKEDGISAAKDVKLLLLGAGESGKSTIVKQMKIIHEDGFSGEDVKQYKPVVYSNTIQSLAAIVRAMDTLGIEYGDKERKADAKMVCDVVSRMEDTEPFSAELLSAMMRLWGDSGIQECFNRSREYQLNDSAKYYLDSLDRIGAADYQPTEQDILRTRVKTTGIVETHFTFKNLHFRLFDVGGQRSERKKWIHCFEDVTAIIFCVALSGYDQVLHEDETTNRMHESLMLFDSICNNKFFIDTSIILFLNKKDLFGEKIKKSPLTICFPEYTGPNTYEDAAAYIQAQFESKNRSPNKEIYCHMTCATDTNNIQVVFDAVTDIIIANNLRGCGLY
HSV replic up: increases HSV replication in cells. HSV replication augmentation in cells, fold increase. maximum fold increase. actives 0.005% (n = 220,000);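 active = peak rise of 1.5-fold or more in the series; inconclusive = self-fluorescent or not available for retest; tested in PC3 cells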;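 note: first round at 10 µM; read as green reporter fluorescence; hits show the peak of a series up to 25 µM; 1 = signal of infected wells without compound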
Insulin prom inh cell count: second read-out of Insulin prom inh, no call of its own (marks repeat the call); normalized cell count, %; measured here: cell count, toxicity; reference of the scale not given here;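 cells exposed to compound for 48 h; stained nuclei by imaging scaled within each plate; lower means fewer cells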
HSV replic up primary fold: second read-out of HSV replic up, no call of its own (marks repeat the call); fold increase; compound at 10 µM; measured here: primary screen fold increase 10 uM; tested in PC3 cells;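 GFP signal in the first replicate; 1 = infected wells without compound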
* = called active by the depositor; i = inactive; u = inconclusive; x = no result given.

SMILES	GALR2 agonist	Insulin prom inh	Insulin prom inh cell count	PKD1 inh	RGS16-Gao	HSV replic up	HSV replic up primary fold
CCCCC(C(=O)NC(C)(C)C)N(Cc1ccco1)C(=O)c1snc(C(N)=O)c1N (configuration not stated)	0.3	11	135	1	103	i	0.96
Cn1c(=O)c2sccc2n2c(CCCC(=O)NCc3ccc4c(c3)OCO4)nnc12	-1.7	x	x	-2	104	i	0.73
COC(=O)c1ccc(COC(=O)c2[nH]c(C)c(C(C)=O)c2C)o1	-0.3	0	105	10	101	i	0.95
CCOc1ccc2oc(C(=O)OCC(=O)NC(=O)NC3CCCC3)c(C)c2c1	-0.7	x	x	-3	65	i	0.84
O=C(O)COc1ccccc1O	-2.3	x	x	-3	99	i	0.86
CC(C)NC(=S)N(CCc1ccncc1)C(C)C	x	x	x	-1	97	i	1.2
CCOCC(=O)Nc1cc(C(=O)Nc2cc(C)cc(C)c2)ccc1Cl	x	x	x	-10	103	i	0.88
CCCCC1C2=C(CC(C)(C)CC2=O)OC2=C1C(=O)CC(C)(C)C2	-0.6	x	x	-6	101	i	1.1
COc1ccccc1N(CCC#N)C(=O)CSc1nc(-c2ccccc2)cn1N	-0.7	x	x	-8	97	i	0.89
CCCOc1cc(CC(=O)NCc2ccco2)ccc1OC	1.4	23	44	-8	111	i	0.91
CCOC(=O)c1c(NC(=O)c2c(Br)cnn2C)c(C#N)nn1-c1ccccc1	-1.3	-20	91	-4	101	i	1.1
C=CCNc1nc(Cl)nc(Nc2ccc([N+](=O)[O-])cc2)n1	x	x	x	-3	105	i	0.92
N#C/C(=C\c1cn(-c2ccccc2)nc1-c1ccccc1)S(=O)(=O)c1ccccc1	-1.4	x	x	-19	101	x	x
c1ccc(-c2cnc(SCCN3CCOCC3)n2CC2CCCO2)cc1 (configuration not stated)	-1.5	-233	74	0	88	i	0.88
O=C(NCc1ccccc1)c1cc(-c2ccncc2)nc2ccc(S(=O)(=O)N3CCOCC3)cc12	3.6	33	81	-8	101	i	0.92
COc1cc(NS(=O)(=O)c2cccc3nsnc23)cc(OC)c1	-3.1	-6	76	-2	95	i	0.78
Cc1ccc2nc(-c3cccc(N)c3)[nH]c2c1	-2.1	80*	154*	-3	111	i	0.71
CC(=O)c1cccc(N/C=C\C(=O)c2ccc(C)cc2)c1	-0.5	-6	102	-8	93	i	0.94
O=C(Nc1ccc(Cl)cc1)Nc1ccccc1C(=O)NCc1ccco1	-0.4	-24	136	-3	64	i	0.73
COCCCNC(=S)N1CCN(S(C)(=O)=O)CC1	-1.5	-40	98	-1	101	i	0.98
Cc1cc(Cl)c(S(=O)(=O)N2CCN(c3cccc(C)c3C)CC2)cc1OCC(N)=O	-1.1	0	86	-1	98	i	0.62
CCN(C(=O)Cn1cnc2cc([N+](=O)[O-])ccc2c1=O)C1CCS(=O)(=O)C1 (configuration not stated)	x	x	x	-4	104	i	0.81
CCOCC(O)CS(=O)(=O)c1ccccn1 (configuration not stated)	-0.1	x	x	-1	97	i	1
COc1ccc(C(=O)/C=C/Nc2c(C)n(C)n(-c3ccccc3)c2=O)cc1OC	-4.7	-47	126	-21	102	i	1
O=C(O)/C(=C\c1cn(-c2ccccc2)nc1-c1ccc(Cl)cc1)NC(=O)c1ccccc1	x	x	x	x	99	i	1.1
SMILES	GALR2 agonist	Insulin prom inh	Insulin prom inh cell count	PKD1 inh	RGS16-Gao	HSV replic up	HSV replic up primary fold
O=C(c1ccco1)N1CCn2c1nc1ccccc12	-2.6	23	90	-1	96	i	1.3
Cc1cc(C)nc(NC(=O)NS(=O)(=O)N2CCCCCC2)n1	-3.0	x	x	-13	102	i	0.78
Cc1ccc(S(=O)(=O)c2nc(S(=O)(=O)c3ccc(C)cc3)c(NCc3ccco3)s2)cc1	-2.5	3	86	11	102	i	0.97
O=C(c1ccc(CN2CCOCC2)cc1)N1CCN(c2ccccc2)CC1	-2.0	25	140	24	109	i	0.98
Cc1ccc(S(=O)(=O)N(C)C)cc1NC(=O)COC(=O)c1c(C)noc1C	0.6	-17	117	-3	107	i	1.1
O=c1nc(Nc2cccc(Cl)c2)oc2cc(Cl)oc(=O)c12	x	x	x	x	97	i	1.1
CC(=O)Cc1nsc(NC(=O)c2csc3c2CCCC3)n1	-0.9	-79	146	2	106	i	0.89
CCc1nnc(NC(=O)Cc2ccc(OC)cc2)s1	-2.7	-36	98	-4	107	i	0.94
CC1CC(=O)NN1C(=O)c1ccccc1 (configuration not stated)	x	x	x	x	102	i	1.1
CO/N=C/CC(=O)Nc1ccc(F)cc1F	-1.5	6	111	19	100	i	0.89
CCN(CC)S(=O)(=O)c1ccc(OC)c(NC(=O)c2ccc(OC)c([N+](=O)[O-])c2)c1	-1.9	26	114	-5	x	i	0.85
CCC1OC2(C)OC(=N)C1(C#N)C(C#N)(C#N)C2c1ccccc1 (configuration not stated)	1.7	-34	78	5	56	u	x
Cc1ccc(C(=O)COC(=O)c2cccc(N3C(=O)c4c(C)nc5ccccc5c4C3=O)c2)cc1C	-0.3	x	x	-8	95	i	1.4
COc1cc2c(cc1OC)-c1cc(OCCN3CCOCC3)nc(=O)n1CC2	0.6	0	168	-4	111	i	1
NC(=O)COC(=O)CNC(=O)c1sc2ccccc2c1Cl	x	x	x	-3	101	i	0.96
COc1cc(CC(=O)Nc2ccc3c(c2)CCC3)cc(OC)c1OC	2.7	-65	88	-8	101	i	0.97
CN(c1ccc(C(=O)NCc2ccccn2)cc1)S(C)(=O)=O	-2.6	20	84	-1	105	i	0.84
CC(C)C(=O)n1nc(-c2cccnc2)nc1NCc1cccs1	x	-45	182	-10	110	i	0.88
Cc1cc(NS(=O)(=O)c2ccc(NC(=O)CCN3C(=O)c4ccccc4C3=O)cc2)no1	-0.3	-16	204	-4	103	i	0.85
COC(=O)c1ccc(C(=O)OC)c(NC(=O)CCc2ccc(C)o2)c1	-2.9	-141	62	-3	97	i	0.91
CCCn1c(=N)n(CCOc2ccc(OC)cc2)c2ccccc21	-0.7	-11	91	0	100	x	x
Cn1ncc(Cl)c1C(=O)NCc1cc(C(C)(C)C)n[nH]1	0.0	12	86	-1	103	i	0.99
O=S(=O)(O)c1nc2ccccc2n1CCOc1ccccc1	-1.1	x	x	-7	91	i	0.92
O=C(CSc1nnc(-c2ccco2)n1-c1ccccc1)NCCc1ccccc1	-2.7	x	x	3	104	i	0.91
Nc1c(C(=O)NCc2ccccc2)sc2nc(N3CCOCC3)c3c(c12)CCCC3	1.3	-8	75	1	101	i	0.84

Four compounds from above, arranged by the value under RGS16-Gao, smallest number first.
| Molecule | RGS16-Gao |
| --- | --- |
| O=C(Nc1ccc(Cl)cc1)Nc1ccccc1C(=O)NCc1ccco1 | 64 |
| O=C(O)COc1ccccc1O | 99 |
| Cn1c(=O)c2sccc2n2c(CCCC(=O)NCc3ccc4c(c3)OCO4)nnc12 | 104 |
| Cc1ccc2nc(-c3cccc(N)c3)[nH]c2c1 | 111 |

The listing continues.
SMILES	GALR2 agonist	Insulin prom inh	Insulin prom inh cell count	PKD1 inh	RGS16-Gao	HSV replic up	HSV replic up primary fold
COc1ccc(N2C(N)=C(C#N)C(c3cccnc3)C3=C2CC(C)(C)CC3=O)cc1 (configuration not stated)	-0.8	31	80	-5	109	i	0.86
CCOC(=O)N1CCN(C(=O)c2ccc3c(c2)sc2nc(-c4ccc(OC)cc4)cn23)CC1	-0.8	-36	61	3	104	i	0.97
CCN(CC)c1nc(N)c2c(N)nc3c(c2c1C#N)CC(c1ccccc1)O3 (configuration not stated)	-1.1	x	x	-3	97	i	0.78
COc1ccc(-c2csc(NC(=O)/C(N=Nc3ccccc3)=C(\C)O)n2)cc1	x	32	126	5	97	i	1
O=C1CCCc2nc3nc4ccccc4n3cc21	-1.0	23	97	-1	97	i	1
Cc1ccc(S(=O)(=O)NNC(=O)c2cnn(-c3ccc(Cl)cc3)c2C(F)(F)F)cc1	x	x	x	x	108	i	1.2
O=C(O)c1ccccc1C(=O)NCC(O)COCC1CC=CCC1 (configuration not stated)	-2.1	x	x	2	97	i	1.1
Cc1nc2ccc(NS(=O)(=O)c3ccc(C)c(C)c3)cc2s1	-1.3	-4	60	-10	99	i	0.79
CC1=C(C#N)CCC(=O)N1Cc1ccc(C)cc1	-2.6	-40	152	-14	108	i	1.1
CCOc1ccc(NS(=O)(=O)c2ccc3c(c2)oc(=O)n3C)cc1	-2.1	x	x	-8	109	i	0.98
O=C(Cc1ccc(F)cc1)NCCc1ccc(F)cc1	-0.6	8	75	-8	101	x	x
O=C(Cn1ccc2ccccc21)Nc1ccc2c(c1)OCO2	x	x	x	-3	103	i	0.9
O=C(Nc1cccnc1)c1cccc(S(=O)(=O)N2CCCCC2)c1	x	x	x	2	113	i	1
CCN(CC)c1cc(CS(=O)c2ccccc2)nc(-c2ccccc2)n1 (configuration not stated)	1.1	x	x	-9	x	i	0.9
COc1ccc(CC(=O)OCN2C(=O)c3ccccc3C2=O)cc1	-2.4	x	x	-18	106	i	0.89
CC(C)c1cc(C(=O)O)on1	-1.9	x	x	14	102	i	0.84
O=c1oc(-c2ccco2)nc2sc3c(c12)CCCC3	0.3	-47	102	-9	102	i	0.98
O=C(CCSc1nc(-c2ccco2)cc(C(F)(F)F)n1)NCc1cccs1	-1.6	-88	142	6	97	i	1
CC(=O)NC(=S)Nc1ccc(NC(=S)NC(=O)/C=C/c2ccco2)cc1	x	x	x	x	95	i	0.68
CN(C)/C=N/c1cc(=O)[nH]c(=O)n1Cc1ccccc1	-0.6	14	74	3	94	i	1
S=C(NCCCN1CCOCC1)Nc1cccc(-c2nnc3n2CCCCC3)c1	x	20	92	6	102	i	1
COc1ccccc1NC(=O)c1cnc2n(c1=O)CCS2	-2.6	36	66	-10	97	i	1
CC(C)N1CCC(N2CCN(Cc3cccnc3)CC2CCO)CC1 (configuration not stated)	x	x	x	-6	101	i	0.99
O=C(CSc1nc(-c2ccccc2)c(-c2ccccc2)[nH]1)NCC1CCCO1 (configuration not stated)	x	x	x	-6	99	i	0.98
CCn1c(SCC(=O)NCC2CCCO2)nnc1-c1c[nH]c2ccccc12 (configuration not stated)	-2.4	-10	93	-3	100	i	1

Six records drawn at random from those above:
SMILES	GALR2 agonist	Insulin prom inh	Insulin prom inh cell count	PKD1 inh	RGS16-Gao	HSV replic up	HSV replic up primary fold
Cc1ccc(S(=O)(=O)NNC(=O)c2cnn(-c3ccc(Cl)cc3)c2C(F)(F)F)cc1	x	x	x	x	108	i	1.2
CCN(CC)c1cc(CS(=O)c2ccccc2)nc(-c2ccccc2)n1 (configuration not stated)	1.1	x	x	-9	x	i	0.9
O=C(O)c1ccccc1C(=O)NCC(O)COCC1CC=CCC1 (configuration not stated)	-2.1	x	x	2	97	i	1.1
O=C(CCSc1nc(-c2ccco2)cc(C(F)(F)F)n1)NCc1cccs1	-1.6	-88	142	6	97	i	1
O=C(Cc1ccc(F)cc1)NCCc1ccc(F)cc1	-0.6	8	75	-8	101	x	x
CC(C)c1cc(C(=O)O)on1	-1.9	x	x	14	102	i	0.84

Following part
SMILES	GALR2 agonist	Insulin prom inh	Insulin prom inh cell count	PKD1 inh	RGS16-Gao	HSV replic up	HSV replic up primary fold
NC(=O)C(=O)NN=C1CCC(c2ccccc2)CC1 (configuration not stated)	-0.3	-13	80	0	99	i	0.99
COc1ccc2[nH]cc(C(=O)CCl)c2c1	x	x	x	x	91	i	0.82
CCN1CCN(CCCN(Cc2ccco2)C(=S)Nc2ccccc2Cl)CC1	x	47	88	-3	97	i	0.89
CC1CC2(C)Oc3ccccc3CC2C(C)C1CNCCCN(C)C (configuration not stated)	x	x	x	-5	102	i	0.6
COc1ccc(/C=N/Nc2ccc(C(=O)O)cc2)cc1OC	x	x	x	x	108	i	0.99
CC(C)CCOC(=O)C1[C@H]2C(=O)N(Cc3cccs3)C[C@]23C=C[C@H]1O3 (some centres not stated)	-1.2	14	105	-3	98	i	1
CC(=O)NC1CC2CCCC(C1)N2S(=O)(=O)c1ccccc1 (configuration not stated)	-0.5	67	104	-1	108	i	0.89
COC(=O)c1ccc(SCC(=O)N2CCC(C)CC2)c([N+](=O)[O-])c1	0.1	-43	134	0	103	i	0.91
CC(C)C(NC(=O)c1ccccc1)C(=O)N/N=C\c1ccco1 (configuration not stated)	-2.5	27	132	-3	95	i	1
Cc1ccc(-n2c(N)c(C(=O)N3CCOCC3)sc2=S)cc1	-1.9	65	155	-7	228	i	0.96
CCOC(=O)c1cc[n+](CC(=O)c2ccc(F)cc2)cc1	0.9	13	108	10	99	i	0.96
Cc1cc(OCc2ccc(C(=O)NN=C3CCCC3)cc2)ccc1Cl	-0.7	-37	146	-11	100	i	0.91
Cc1ccc(Cl)cc1NC(=O)C1CCN(S(C)(=O)=O)CC1	x	45	112	-7	88	i	0.95
COc1ccc(N/C(=N\c2nc(C)cc(C)n2)NC(C)=O)cc1OC	-3.1	x	x	3	101	i	0.91
